ALR H2O2 inh: inhibitors of human ALR sulfhydryl oxidase, primary screen, biochemical, H2O2 detection, HRP-luminol luminescence, single point; purified ALR, DTT oxidation; inhibition, % (no concentration beside the values); actives 3.8% (n = 290,000); AID 485317, 2010;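 active means mean and each replicate at 75% or more; inconclusive means only one of the two met; inactive means neither met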;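 further: stock transfer was 7.5 nL into about 7.5 µL; 0% = neutral wells and 100% = wells with inactivated enzyme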
HNF4A DNA FP: change in binding of human HNF4A to DNA, primary screen, biochemical, fluorescence polarization, FITC-DNA | 1 h | AID 1224865, 2016 | activity change, % at 10 µM | actives 0.3% (n = 360,000) | Hepatocyte nuclear factor 4-alpha (Homo sapiens), P41235; in the data active means activity change above about 30%, passing the limit was not always enough;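 further: controls were the assay level and a saturating level of protein; the project sought stronger binding though the title names inhibitors; some compounds called inactive have numbers as strong as hits; positive values seem to mean higher polarization but the record does not say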
Beta2AR agonist: beta2AR agonists driving receptor internalization, primary screen, cell-based, FAP fluorogen, flow cytometry | Am2.2-beta2AR cells; reference of the scale not given here | response, % (no concentration beside the values) | actives 0.43% (n = 340,000);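 active means response above a set limit, near 3 SD of response in nonfluorescent compounds, cut at about 42% in these data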;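 further: stock transfer was 100 nL into about 11 µL; a reference agonist was the positive control; negative values mostly stem from fluorescent compounds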
Vif TR-FRET: inhibitors of Vif binding to APOBEC3G peptide, primary screen, biochemical, TR-FRET, GST-Vif 1-94, biotin-A3G peptide, dose response retest (AID 1117319); actives 0.57% (n = 260,000); inhibition, %, or IC50 in µM where a hit was titrated; Virion infectivity factor (Human immunodeficiency virus type 1 group M subtype B (isolate …; TR-FRET GST-Vif / biotin-A3G peptide binding; higher % means a stronger effect; test concentration not given here; strong numbers were not always called active;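 active means above the screen mean plus three standard deviations and confirmed in dose response; inconclusive means results disagree or hit not tested in dose response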;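 further: Vif residues 1-94 fused to GST binding biotinylated APOBEC3G peptide 110-148; 0% = full assay without inhibitor and 100% = GST in place of GST-Vif; retest series ran down from 100 µM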
RanGTP-Imp inh: inhibitors of RanGTP-importin-beta interaction, primary screen, biochemical, FRET, CFP-Ran, YFP-importin-beta, homogeneous | AID 2216, 2009 | inhibition, % (concentration not given with the values) | Ran GTPase (GTP-bound) - importin-beta complex | cell-free CFP-Ran/YFP-importin-beta FRET ratio | actives 1.1% (n = 300,000);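 active means most replicates above 15%; inconclusive means exactly half above 15%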;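 further: 0% = DMSO wells and 100% = Ran loaded with GDP instead of GTP; wells of about 40 µL received 100 nL stock; the first replicate is given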
Calb FLC: C. albicans growth inhibition with fluconazole, primary screen, CaCi-2 strain, Alamar Blue fluorescence; growth inhibition, % (concentration not given with the values); actives 0.57% (n = 300,000); C. albicans CaCi-2 (fluconazole-resistant clinical isolate) + fluconazole, 48 h; AID 1979, 2009;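 active means most replicates above 75%; inconclusive means exactly half above 75%; inactive means most below 75%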;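 further: all wells also contain fluconazole at 8 µg/ml as a sub-toxic cotreatment; 0% = median of DMSO wells and 100% = median of geldanamycin control wells; wells of about 8 µL received 7.5 nL stock; the first replicate is given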
LANA-H2B inh: blockers of LANA interaction with H2A/H2B – biochemical, FP readout, HTS, primary screen | Protein LANA1 (Human herpesvirus 8 type P (isolate GK18)), Q9QR71 | cell-free LANA-H2A/H2B peptide, fluorescence polarization | inhibition, % (test concentration not listed) | actives 0.6% (n = 320,000) | AID 2629, 2010; in the data active means inhibition mostly above about 10%, no sharp cut-off; inactive means mostly below about 6.7%;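 further: stock transfer was 7.5 nL into about 10 µL; 0% = median of vehicle wells and 100% = median of positive control wells; one replicate is shown; the record names a cut of 25% in any replicate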
Target sequence (Q9QR71 whole entry, looked up): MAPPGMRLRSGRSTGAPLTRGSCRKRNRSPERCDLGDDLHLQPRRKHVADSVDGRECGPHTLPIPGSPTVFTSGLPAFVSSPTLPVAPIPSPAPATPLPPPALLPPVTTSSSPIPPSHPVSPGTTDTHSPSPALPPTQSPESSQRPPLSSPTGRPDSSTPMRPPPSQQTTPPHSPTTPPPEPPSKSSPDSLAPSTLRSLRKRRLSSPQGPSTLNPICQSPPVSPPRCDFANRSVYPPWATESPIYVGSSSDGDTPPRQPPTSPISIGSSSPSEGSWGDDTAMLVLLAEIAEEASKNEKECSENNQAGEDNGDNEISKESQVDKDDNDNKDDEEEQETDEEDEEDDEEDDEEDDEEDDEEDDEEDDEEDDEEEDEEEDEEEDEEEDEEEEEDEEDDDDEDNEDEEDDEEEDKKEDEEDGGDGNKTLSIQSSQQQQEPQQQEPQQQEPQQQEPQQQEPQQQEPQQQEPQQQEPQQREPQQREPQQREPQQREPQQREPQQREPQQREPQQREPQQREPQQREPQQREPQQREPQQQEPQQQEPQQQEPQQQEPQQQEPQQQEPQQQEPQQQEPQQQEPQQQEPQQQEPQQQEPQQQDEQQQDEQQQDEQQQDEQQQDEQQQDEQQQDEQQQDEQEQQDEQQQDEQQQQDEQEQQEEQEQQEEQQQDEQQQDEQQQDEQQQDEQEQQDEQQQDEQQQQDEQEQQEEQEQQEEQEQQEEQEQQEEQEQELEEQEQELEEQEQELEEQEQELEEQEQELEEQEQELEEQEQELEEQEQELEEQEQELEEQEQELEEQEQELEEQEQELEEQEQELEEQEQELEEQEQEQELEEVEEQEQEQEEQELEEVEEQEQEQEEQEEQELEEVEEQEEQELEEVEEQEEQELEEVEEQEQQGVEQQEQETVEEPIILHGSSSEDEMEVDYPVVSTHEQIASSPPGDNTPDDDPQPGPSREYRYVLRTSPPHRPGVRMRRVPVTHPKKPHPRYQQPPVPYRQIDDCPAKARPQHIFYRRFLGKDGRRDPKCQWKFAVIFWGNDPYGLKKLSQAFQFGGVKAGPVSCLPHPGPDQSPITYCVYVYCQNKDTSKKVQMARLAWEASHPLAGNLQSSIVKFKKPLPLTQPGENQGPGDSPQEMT
Active calls of the source: *; ? = inconclusive; . = not tested or not shown; & = joins results of further samples. The list is partial. The share of hits here may be higher or lower than overall.

No.	Molecule	ALR H2O2 inh	HNF4A DNA FP	Beta2AR agonist	Vif TR-FRET	RanGTP-Imp inh	Calb FLC	LANA-H2B inh
1	Cc1cc(C)c(N=Cc2c(O)[nH]c(=O)[nH]c2=O)c(C)c1	-6	2.4	-4	.	-0.6	11	-2.9
2	CC1CCN(C(=O)COC(=O)c2cn(C)c3ccccc23)CC1	-2	7.5	0	.	.	.	-3.7
3	O=[N+]([O-])c1ccc(CNCCc2ccccc2)cc1	-12	1.4	2	.	-0.7	-2	1.4
4	O=C(CNC1CCCCC1)N1CCC2(CC1)OCCO2	-2	1.2	-3	23%	2.9	-7	0.7
5	N#CCCn1cc(C=C2C(=O)NC(=O)NC2=O)c(-c2ccccc2)n1	34	-0.3	11	.	3.1	1	0.8
6	CN1CCc2nc3sc(C(=O)NC4CC4)c(N)c3cc2C1	-26	-5.6	24	?	3.5	-1	-2.0
7	Nc1ccccc1C(=O)OCC(=O)N1CCc2ccccc21	.	8.0	-2	-15%	-0.3	-2	.
8	CCN1CCN(C(=O)Cc2ccccc2OC)CC1	-22	-0.1	4	.	-0.5	-4	1.9
9	CC1CCN(c2cc(Br)c([N+](=O)[O-])cc2F)CC1	4	-0.1	-3	4%	-5.7	-4	1.1
10	Cc1cc(C(=O)N=Nc2c(O)n(C)c3ccccc23)c(C)o1	.	-6.5	-30	.	-2.9	-7	-1.4
11	CCN(C(=O)COC(=O)c1cc(C)n(C2CC2)c1C)c1ccccc1	15	-3.3	-1	2%	.	.	-1.2
12	COc1cc(Br)cc(CN2CCN(C)CC2)c1O	35	2.5	3	4%	-0.6	5	-1.0
13	CC12CN3CC(C)(CN(C1)C3c1cccs1)C2O (configuration not stated)	-12	-1.5	2	22%	2.9	0	1.1
14	CCOc1ccc(N2C(=O)NC(=O)/C(=C\c3ccc(N4CCOCC4)cc3C)C2=O)cc1	13	0.4	0	17%	1.0	7	1.2
15	O=C1NC(=O)N(c2ccc3c(c2)OCO3)C(=O)/C1=C/c1ccc(N2CCCCC2)o1	6	163	-23	?	-17	4	-37
16	COC(=O)C1=C(c2cccc(OCc3ccccc3)c2)C[C@@H]2CC[C@H]1N2C(=O)NCc1ccc(Br)cc1	-3	-4.5	16	.	.	.	3.0
17	ClCCN(CCCl)c1ccc(-n2cnc3c(Cl)ncnc32)cc1	.	0.7	16	-7%	.	.	.
18	CCOC(=O)c1c(N)n(Cc2ccc(OC)cc2)c2nc3ccccc3nc12	.	.	.	24%	12	22	.
19	Cc1c(CC(=O)N2C[C@H]3C[C@@H](C2)c2cccc(=O)n2C3)c(=O)oc2c(C)c(O)ccc12	89*	-1.4	-8	.	71*	-8	-0.6
20	O=C(c1cc(-c2ccc(Cl)cc2)n(-c2ccc(Cl)cc2Cl)n1)N1CCOCC1	-1	2.2	9	28%	-1.6	1	5.3
21	CC(O)(CS(=O)(=O)c1ccc(F)cc1)C(=O)Nc1ccc(C#N)c(C(F)(F)F)c1 (configuration not stated)	-6	.	.	-6%	?	-9	-1.6
22	Fc1ccc(CCNCc2ccc(Br)cc2)cc1	-10	1.3	10	10%	-0.8	-6	-2.5
23	CCC(=NCC1CCCO1)c1c(O)n(-c2ccc(OC)cc2)c(=O)[nH]c1=O (configuration not stated)	-4	2.4	-6	1%	-1.7	-14	-1.7
24	CC1(C)C2CC=C(CN3CCC(O)CC3)C1C2 (configuration not stated)	-7	1.4	0	-6%	-2.3	6	-0.7
25	COc1ccc(OCCSc2nnnn2C2CCCCC2)cc1	3	6.7	-8	2%	.	-8	-4.1
26	Cc1cccc(NC(=O)CN2CCN(C(=O)COc3cccc(Br)c3)CC2)c1C	-1	1.1	-5	-8%	.	.	-266
27	CCc1ccc(N2C(=O)NC(=O)C(CCc3ccncc3)(CCc3ccncc3)C2=O)cc1	-11	0.8	-3	5%	0.9	0	4.9
28	CN(C)C(=O)Oc1cc(OC(=O)N(C)C)cc(C(O)CNC(C)(C)C)c1 (configuration not stated)	-2&-19	0.6&-3.5	-2&-6	.	.	.	-5.7&-1.2
29	COc1ccc(CCN(C)Cc2ccc(F)cc2F)cc1OC	-24	3.1	-5	5%	-2.4	-6	-3.0
30	CN1C(=O)C(=Cc2c(OCc3cnc(Cl)s3)ccc3ccccc23)C(=O)N(C)C1=O	15	3.9	8	7%	4.7	13	-2.5

Entries of single compounds as entered above. Order of screens: ALR H2O2 inh | HNF4A DNA FP | Beta2AR agonist | Vif TR-FRET | RanGTP-Imp inh | Calb FLC | LANA-H2B inh
`CN1C(=O)C(=Cc2c(OCc3cnc(Cl)s3)ccc3ccccc23)C(=O)N(C)C1=O` is listed as 15 | 3.9 | 8 | 7% | 4.7 | 13 | -2.5
`COc1ccc(CCN(C)Cc2ccc(F)cc2F)cc1OC` is listed as -24 | 3.1 | -5 | 5% | -2.4 | -6 | -3.0
`CCC(=NCC1CCCO1)c1c(O)n(-c2ccc(OC)cc2)c(=O)[nH]c1=O` (configuration not stated) is listed as -4 | 2.4 | -6 | 1% | -1.7 | -14 | -1.7
`CC1(C)C2CC=C(CN3CCC(O)CC3)C1C2` (configuration not stated) is listed as -7 | 1.4 | 0 | -6% | -2.3 | 6 | -0.7
`Cc1c(CC(=O)N2C[C@H]3C[C@@H](C2)c2cccc(=O)n2C3)c(=O)oc2c(C)c(O)ccc12` is listed as 89* | -1.4 | -8 | . | 71* | -8 | -0.6

Following part
No.	Molecule	ALR H2O2 inh	HNF4A DNA FP	Beta2AR agonist	Vif TR-FRET	RanGTP-Imp inh	Calb FLC	LANA-H2B inh
31	COc1ccc2ccccc2c1CNCCc1ccccc1	-2	-5.1	-5	.	3.7	0	1.4
32	N#Cc1ccc(Cn2cc(C(=O)c3ccco3)c3ccccc32)cc1	-6	-0.9	-12	4%	-2.8	40	-0.8
33	CC(C)c1ccc(C2N3CCCN23)cc1 (configuration not stated)	.	2.5	-1	89%	?	-9	1.1
34	CCCCn1c(O)c(C(C)=Nc2ccc(OCC)cc2)c(=O)[nH]c1=O	-11	4.1	-3	5%	-1.6	-3	-2.6
35	C/C=C/c1ccc2c(c1)OCO2	29	-0.1	-2	.	.	.	11*
36	CC(=O)O[C@@]12CO[C@@H]1C[C@H](O)[C@@]1(C)C(=O)[C@H](O)C3=C(C)[C@@H](O)C[C@@](O)([C@@H](OC(=O)c4ccccc4)C12)C3(C)C (some centres not stated)	.	-0.2	2	.	0.2	2	2.7
37	Cc1cccc(-n2c(C)nc3cc(C(=O)N4CCC5(CC4)OCCO5)ccc32)c1	.	1.4	-8	3%	-3.0	9	0.9
38	COC(=O)C1=C(c2cc3ccccc3o2)C[C@@H]2CC[C@H]1N2C(=O)N1CCC(C)CC1	.	-0.8	-8	.	1.5	7	2.4
39	CC(=O)c1ccc(OC(NC(=O)c2ccco2)C(Cl)(Cl)Cl)cc1 (configuration not stated)	-25	0.6	0	5%	0.7	1	2.6
40	C/C(=N\NC(=O)c1ccccc1O)c1c(O)n(C2CCCCC2)c(=O)[nH]c1=O	8	2.4	13	.	3.5	-2	-1.3
41	COC(=O)C1=C(c2cccc(OCc3ccccc3)c2)C[C@@H]2CC[C@H]1N2C(=O)NCc1ccc(F)cc1	-6	1.6	7	.	.	.	3.6
42	c1ccc(-c2ccc(-c3n(-c4ccccn4)c4ccccc4[n+]3-c3ccccn3)cc2)cc1	.	0.3	4	0%	1.6	-1	.
43	C[C@]12CC[C@H](O)CC1=CC[C@@H]1[C@@H]2CC[C@@]2(C)[C@H]1CC[C@]2(C)O	-21	.	.	.	1.0	.	-0.6
44	O=C1CCCN1C(=O)c1cncc(Br)c1	.	-3.1	-3	?	-2.8	11	2.0
45	CCOC(C[n+]1c(-c2ccccc2)cc(C)cc1-c1ccccc1)OCC	0	1.1	3	.	-1.9	-4	3.2
46	Clc1cccc(N2CCNCC2)c1Cl	-1	-1.4	4	3%	3.4	1	-2.0
47	Cc1cc(OC(C)C(=O)NCC(O)c2ccccc2)c2c3c(c(=O)oc2c1)CCCC3 (configuration not stated)	0	1.2	-5	.	-4.0	-3	-0.5
48	Cc1cccc(-n2c(O)c(C=Nc3ccccc3N)c(=O)[nH]c2=O)c1	19	-0.3	-18	13%	-0.1	103*	0.8
49	COc1ccc(CC[n+]2cc(/N=C(\C)[O-])on2)cc1OC	0	-1.9	0	16%	?	-6	-0.5
50	COc1ccccc1C1CC2CCC(C1OC(C)=O)N2Cc1ccccc1 (configuration not stated)	1	0.7	1	-8%	0.4	-3	-0.1
51	Cc1nn(Cc2ccccc2Cl)c(C)c1C(=O)OCC(=O)NC1CCS(=O)(=O)C1 (configuration not stated)	19	-1.8	-7	?	-0.5	16	1.1
52	CCN(CC)P(c1n(C)cc[n+]1C)N(CC)CC	9	0.5	1	6%	-2.5	15	1.6
53	Cc1cc(C)cc(-n2c(O)c(C=Nc3ccc(N4CCOCC4)cc3)c(=O)[nH]c2=S)c1	60	-1.1	24	24%	-0.1	1	-0.5
54	Cc1c2cnn(CC(=O)N3CCC4(CC3)OCCO4)c(=O)c2c(C)n1Cc1cccc(Cl)c1	4	-2.1	4	-4%	4.4	-30	-3.5
55	CC(=O)N(C)C1=Nc2ccc(Cl)cc2C(c2ccccc2)=[N+]([O-])C1	.	4.2	-14	-3%	.	.	.
56	CN(C)[C@@H]1C(=O)C(C(N)=O)=C(O)[C@@]2(O)C(=O)C3=C(O)c4c(O)cccc4[C@@](C)(O)C3[C@H](O)C12 (some centres not stated)	-25&-19	-57&-8.5	-10&-14	.	-2.7	-16	1.3&7.2
57	COC(=O)OCC12CCC(O1)C1(C)C(=O)OCC21 (configuration not stated)	2	4.0	-3	1%	3.6	-1	-0.5
58	COc1ccc(OC)c(NP(=O)(Oc2ccc(Cl)cc2)Oc2ccc(Cl)cc2)c1	-5	0.7	1	27%	-4.0	-7	-2.9
59	Cn1c(O)c(C(=Nc2ccccc2)SCc2ccccc2Cl)c(=O)n(C)c1=O	96*	1.8	1	8%	5.8	2	0.6
60	O=c1[nH]c(=O)n(-c2cccc3ccccc23)c(O)c1C=NCCCn1ccnc1	-5	0.3	10	?	0.6	-7	3.0
